# GALR2 ag – GALR2 receptor agonists, primary screen, cell-based; GALR2-expressing cells, agonist activation read-out; activation, %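 (tested at 5 µM)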; actives 0.48% (n = 140,000);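 active = above mean plus 3 SD of all compounds, about 5% in these data, not always enough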;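 also: 0% = vehicle buffer wells and 100% = reference agonist at full effect; tested in CHO reporter cells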
# PKD1 inh – inhibitors of human PKD1 kinase, biochemical, fluorescence polarization; Serine/threonine-protein kinase D1 (Homo sapiens), Q15139; PKD1 kinase fluorescence polarization assay; inhibition, %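 (about 10 µM by stock and volumes)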; actives 0.056% (n = 200,000);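 active = inhibition of 50% or more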;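 also: controls were vehicle for no effect and a reference inhibitor for full effect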
# Target sequence (Q15139 whole entry, looked up): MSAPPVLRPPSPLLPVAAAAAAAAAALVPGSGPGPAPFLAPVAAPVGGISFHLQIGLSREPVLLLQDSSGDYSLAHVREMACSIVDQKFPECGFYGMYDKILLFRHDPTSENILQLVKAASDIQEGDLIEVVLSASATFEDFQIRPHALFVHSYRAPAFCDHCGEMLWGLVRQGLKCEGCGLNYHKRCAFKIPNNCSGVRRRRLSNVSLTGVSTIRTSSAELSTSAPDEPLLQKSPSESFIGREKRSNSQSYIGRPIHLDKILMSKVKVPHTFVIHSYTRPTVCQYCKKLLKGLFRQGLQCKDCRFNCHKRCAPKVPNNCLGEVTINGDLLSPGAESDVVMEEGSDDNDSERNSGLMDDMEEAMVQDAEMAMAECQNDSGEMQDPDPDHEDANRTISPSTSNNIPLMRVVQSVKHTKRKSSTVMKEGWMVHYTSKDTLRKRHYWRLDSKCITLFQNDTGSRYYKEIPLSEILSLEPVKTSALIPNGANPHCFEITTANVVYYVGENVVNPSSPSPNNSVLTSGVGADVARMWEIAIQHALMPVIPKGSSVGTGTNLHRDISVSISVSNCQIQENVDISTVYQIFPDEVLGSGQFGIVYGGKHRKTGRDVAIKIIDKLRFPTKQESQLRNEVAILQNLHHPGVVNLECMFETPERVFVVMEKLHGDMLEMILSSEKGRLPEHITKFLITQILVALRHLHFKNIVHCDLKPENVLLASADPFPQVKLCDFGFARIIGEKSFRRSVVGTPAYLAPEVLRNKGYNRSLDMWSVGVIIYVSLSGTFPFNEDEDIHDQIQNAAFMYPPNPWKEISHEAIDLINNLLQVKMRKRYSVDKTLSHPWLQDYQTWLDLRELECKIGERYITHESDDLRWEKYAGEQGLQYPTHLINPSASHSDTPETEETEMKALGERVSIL
# Insulin prom inh – inhibitors of insulin promoter-driven GFP, primary screen, imaging, TRM-6 cells (human fetal islet line), eGFP reporter, cell count; reporter expression induced with tamoxifen; inhibition, % at 2 µM; actives 0.9% (n = 130,000);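 active = inhibition above the mean plus 3 SD, with well images judged a real hit on visual review, cut at about 60% in these data, passing the limit was not always enough; inconclusive = inhibition over the cutoff but images rejected on review; inactive = inhibition not above the cutoff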
# HSV augment – enhancers of HSV replication in host cells, fold increase, host cell viability | HSV replication augmentation in cells | maximum fold increase | actives 0.005% (n = 220,000) | AID 1956, 2009;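 active = peak rise of 1.5-fold or more in the series; inconclusive = self-fluorescent or not available for retest; tested in PC3 cells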;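 also: first round at 10 µM; read as green reporter fluorescence; hits show the peak of a series up to 25 µM; 1 = signal of infected wells without compound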
# RGS16-Gao HTS – modulators of RGS16 binding to Galphao, primary screen, biochemical, human proteins, multiplexed bead flow cytometry; Regulator of G-protein signaling 16 (Homo sapiens) + Guanine nucleotide-binding protein …; bead-based flow cytometry RGS16-Galphao binding, fluorescence; actives lie on both sides; binding response (% of control), % at 10 µM; actives 0.38% (n = 220,000);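 active = below 25% or above 175%, edge rows of some plates excepted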;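 also: Galphao activated by GDP with aluminum fluoride before binding; 100% = wells without compound and 0% = beads without RGS; some results beyond the cut were filed as inactive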
# Insulin prom inh cell count – also measured in Insulin prom inh; calls as there; normalized cell count, %; measured here: cell count, toxicity; reference of the scale not given here;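 cells exposed to compound for 48 h; stained nuclei by imaging scaled within each plate; lower means fewer cells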
# HSV augment primary fold – second read-out of HSV augment, no call of its own (marks repeat the call); fold increase; compound at 10 µM; measured here: primary screen fold increase 10 uM; tested in PC3 cells;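 GFP signal in the first replicate; 1 = infected wells without compound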
# An asterisk follows results filed as active; i = inactive; ? = inconclusive; . = not tested or not shown.
SMILES,GALR2 ag,PKD1 inh,Insulin prom inh,Insulin prom inh cell count,HSV augment,HSV augment primary fold,RGS16-Gao HTS
Cc1cccc(C)c1NC(=O)CN(C)C(C)C(=O)Nc1ccccc1-c1ccccc1 (configuration not stated),.,0,.,.,i,0.93,100
Cn1cc(C(=O)N/N=C/c2ccc3c(c2)OCO3)c2ccccc21,.,.,.,.,i,0.82,101
CC(C)(C)NC(=O)C(c1ccccc1F)N(Cc1ccco1)C(=O)c1csnn1 (configuration not stated),-2.4,-3,-64,96,i,0.73,98
Oc1[nH]c2ccccc2c1N=NC(=S)N1CCOCC1,.,.,.,.,i,0.64,92
CCOC(=O)C1(Cc2cccc(OC)c2)CCN(Cc2cccc3c2OCO3)CC1,.,-5,.,.,i,0.96,102
Cc1nc2c(c(-c3ccccc3)c1C#N)C(=O)c1ccccc1-2,0.0,13,5,146,i,0.92,99
COCCCn1c2nc3ccccc3nc2c2c(=O)n(-c3ccccc3OC)c(C)nc21,0.2,-10,.,.,.,.,98
COc1ccc(N2C(=O)[C@@H]3C(c4cccnc4)=NO[C@@H]3C2=O)cc1,.,.,.,.,i,0.82,90
Clc1ccc(-c2nnc3n2CCCC3)cc1Cl,-0.3,1,-21,115,i,0.83,99
COc1ccccc1N1CCN(C(=S)Nc2cccc(C)c2)CC1,.,-2,50,110,i,0.89,107
COc1ccc(-n2c(SCC(=O)Nc3nccs3)nc3c(c2=O)SCC3)cc1,-5.0,-17,.,.,i,0.88,103
COc1ccc(N2C(=O)CCC(C(=O)N(C)C3CCCCC3)C2c2ccc(OC)c(OC)c2)cc1 (configuration not stated),-0.5,-2,22,142,i,0.94,106
Cc1occc1C(=O)NC1CCCCCCC1,-0.1,2,33,124,.,.,90
COc1ccc(-c2ccnc(-c3ccncc3)n2)cc1,.,.,.,.,i,0.82,106
CC1CCCCC1NC(=O)CN(C)S(=O)(=O)c1cccc2cccnc12 (configuration not stated),.,.,.,.,i,0.92,103

# 5 structures out of the list, ordered by number of heavy atoms, falling.
SMILES,GALR2 ag,PKD1 inh,Insulin prom inh,Insulin prom inh cell count,HSV augment,HSV augment primary fold,RGS16-Gao HTS
COCCCn1c2nc3ccccc3nc2c2c(=O)n(-c3ccccc3OC)c(C)nc21,0.2,-10,.,.,.,.,98
CC(C)(C)NC(=O)C(c1ccccc1F)N(Cc1ccco1)C(=O)c1csnn1 (configuration not stated),-2.4,-3,-64,96,i,0.73,98
COc1ccc(N2C(=O)[C@@H]3C(c4cccnc4)=NO[C@@H]3C2=O)cc1,.,.,.,.,i,0.82,90
Oc1[nH]c2ccccc2c1N=NC(=S)N1CCOCC1,.,.,.,.,i,0.64,92
Clc1ccc(-c2nnc3n2CCCC3)cc1Cl,-0.3,1,-21,115,i,0.83,99

# The list continues:
SMILES,GALR2 ag,PKD1 inh,Insulin prom inh,Insulin prom inh cell count,HSV augment,HSV augment primary fold,RGS16-Gao HTS
CCOC(=O)C(=O)NNc1ccc(F)cc1,.,.,.,.,i,0.82,100
COc1cc(CNc2ccc(S(N)(=O)=O)cc2)ccc1OCC(=O)NC1CCCCC1,.,-8,.,.,i,1,97
O=S(=O)(c1cccc(C(F)(F)F)c1)N1CCC(c2cc(-c3cccc4ccccc34)n[nH]2)CC1,-0.1,7,-68,141,i,0.98,100
COC(=O)c1ccc(CNC(=O)COC(=O)c2cc(Cl)nc(Cl)c2)cc1,.,0,-45,115,i,1.1,103
Nc1ccc(S(=O)C(F)(F)F)cc1 (configuration not stated),.,0,-25,61,i,0.85,105
CCc1ccc(NCc2nc(-c3ccccc3)no2)cc1,0.6,11,31,69,i,1,101
O=c1ccccn1CCOc1ccccc1Cl,-0.1,-15,0,98,i,0.96,107
CCNc1nc(NC(N)=S)nc(NC(C)(C)C)n1,.,-7,.,.,i,1,105
C/C(=N/NC(=O)c1cc(-c2ccc(Cl)s2)[nH]n1)c1ccco1,.,.,.,.,i,1,100
CCCn1nnc(NC(=O)c2cccnc2Cl)n1,-1.6,-9,44,79,i,0.88,98
O=C(NCCCN1CCOCC1)c1cccs1,-1.9,-6,18,114,i,0.87,169
CC(C)CNC(=S)NNC(=O)c1ccc(OC(F)F)cc1,0.6,-7,9,85,i,1.1,101
COc1ccc(C=O)cc1Cn1c(=O)n(CCC(=O)NCc2ccco2)c(=O)c2sccc21,.,1,.,.,i,0.96,101
Cc1cc(C)n(C(=O)COc2ccccc2C)n1,-2.5,-3,59,132,i,0.99,99
Clc1ccccc1Cn1nnc2c(N3CCOCC3)nc(C3CC3)nc21,-1.0,-4,-9,144,.,.,105
COc1ccc2c(c1)C(=O)N(c1ccccc1OC)C(=O)C2,-0.3,-12,-49,168,.,.,109
COC(=O)COc1ccc(S(=O)(=O)Nc2ccc(NC(C)=O)cc2)cc1,0.9,-1,-41,48,i,0.88,98
C=CCCN(C1CCCC1)S(=O)(=O)c1ccccc1Br,.,.,.,.,i,0.96,95
CC(C)N(CCc1ccncc1)C(=S)Nc1cccc(Cl)c1,.,0,.,.,i,0.93,98
CCCNC(=O)CN(C)S(=O)(=O)c1ccc(F)cc1,-0.2,-7,-38,90,i,0.94,104
Cc1cc(-c2nnc(SCC(=O)Nc3nc(-c4ccc(Cl)cc4)cs3)o2)no1,.,.,.,.,i,0.98,102
O=C(Nc1cccc([N+](=O)[O-])c1)c1ccccc1,.,.,.,.,i,1,95
COc1ccc(N2CCN(c3ccc([N+](=O)[O-])nc3)CC2)cc1,.,4,.,.,i,1.1,101
COc1ccc(C2NC(C(=O)O)Cc3c2[nH]c2ccccc32)cc1OC (configuration not stated),-1.3,1,4,143,i,0.95,104
CC(=O)C1C(=O)CC(C)(O)C(C(C)=O)C1c1ccccc1 (configuration not stated),.,-5,-38,74,i,1,103
CC(=O)N1c2ccc([N+](=O)[O-])cc2NC(=O)CC1C (configuration not stated),0.1,-6,.,.,i,1.2,107
Cn1c(NC(=O)c2ccccc2Br)cc(=O)n(C)c1=O,-1.5,6,.,.,i,0.91,102
COc1cccc(C(=O)Cn2c(N3CCCCC3)nc3c2c(=O)n(C)c(=O)n3C)c1,-1.0,2,.,.,i,0.96,100
CC(=O)Nc1ccc(S(=O)(=O)Nc2c(C)n(C)n(-c3ccccc3)c2=O)cc1,0.1,-3,.,.,i,0.93,98
COc1ccc(C2/C(=C(/O)c3ccccc3)C(=O)C(=O)N2C)cc1 (configuration not stated),-0.8,-11,31,96,i,1.2,55
COc1ccc(C2C(C(=O)OC3CCCCC3)=C(C)Nc3nnnn32)c(OC)c1OC (configuration not stated),-0.8,2,25,49,i,0.94,97
Cc1cc(C)cc(NC(=O)c2ccc(CSc3nnnn3C)cc2)c1,-3.0,6,.,.,i,1.1,105
CS(=O)(=O)N(CC(=O)Nc1ccccc1C(=O)NCCc1ccccc1)c1ccc2c(c1)OCCO2,-1.2,-1,.,.,i,1.2,101
O=C(CCSc1ccc(Cl)c(Cl)c1)NC12CC3CC(CC(C3)C1)C2,-3.6,-2,-39,160,i,0.93,102
C=CCNC(=O)CC(=O)N/N=C/c1cccc(C)c1,-0.7,-9,32,94,i,0.87,106
Cc1nnc(SCC(=O)N(C)Cc2ccccc2)[nH]c1=O,-2.1,-15,.,.,i,1.1,102
CCOC(=O)c1nnn(CC(=O)N2N=C(c3ccccc3)CC2c2ccccc2)c1C(=O)OCC (configuration not stated),1.1,-9,39,182,i,0.86,107
O=C1CSCN1c1ccc(Cl)c(Cl)c1,.,3,26,122,i,0.86,106
COc1ccc2c(CCNC(N)=S)c[nH]c2c1,.,.,.,.,i,0.94,84
COc1cc(OC)cc(C(=O)NCC2CCCO2)c1 (configuration not stated),-0.9,3,.,.,i,0.86,102
CCCN(c1ccc(C(=O)OC)cc1)S(=O)(=O)c1ccccc1,.,4,.,.,i,0.95,102
O=C(O)CCc1ccc(S(=O)(=O)NCCc2ccccc2)cc1,-2.6,4,15,84,i,0.93,104
C=CCn1nc2n(c1=O)-c1ccccc1SC2,.,.,.,.,i,1.1,98
CN(C)c1nc2c(c(N)nn2-c2ccc(Cl)cc2)c(=O)o1,-1.1,1,.,.,i,0.86,106
COc1cccc2c(Cl)c(CC=C(Cl)Cl)c(C)nc12,.,0,.,.,i,0.98,110

# Entries of single compounds, looked up by structure.
# `CCOC(=O)c1nnn(CC(=O)N2N=C(c3ccccc3)CC2c2ccccc2)c1C(=O)OCC` (configuration not stated) is entered as GALR2 ag: 1.1; PKD1 inh: -9; Insulin prom inh: 39; Insulin prom inh cell count: 182; HSV augment: i; HSV augment primary fold: 0.86; RGS16-Gao HTS: 107
# `CCCN(c1ccc(C(=O)OC)cc1)S(=O)(=O)c1ccccc1` is entered as GALR2 ag: .; PKD1 inh: 4; Insulin prom inh: .; Insulin prom inh cell count: .; HSV augment: i; HSV augment primary fold: 0.95; RGS16-Gao HTS: 102
# `COc1cccc2c(Cl)c(CC=C(Cl)Cl)c(C)nc12` is entered as GALR2 ag: .; PKD1 inh: 0; Insulin prom inh: .; Insulin prom inh cell count: .; HSV augment: i; HSV augment primary fold: 0.98; RGS16-Gao HTS: 110

# Next part
SMILES,GALR2 ag,PKD1 inh,Insulin prom inh,Insulin prom inh cell count,HSV augment,HSV augment primary fold,RGS16-Gao HTS
NC(=O)c1ccccc1N/C=C/C(=O)c1ccc(F)cc1,-0.4,-9,21,56,.,.,100
CCOC(=O)C(=NC1CCCCC1)NNc1cccc(C(F)(F)F)c1,0.7,5,.,.,i,1.4,100
N#Cc1cc2c(nc1SCC(=O)O)CCCC2,-2.1,7,20,98,i,0.93,101
COc1cccc(-n2nnnc2SCC(=O)Nc2nc3c(s2)CCCC3)c1,-0.1,-11,58,82,i,0.93,105
Fc1ccccc1C1CCN(Cc2nc(COc3ccccc3)no2)C1 (configuration not stated),.,2,.,.,i,1,104
Cc1cc(OCCn2ccnc2)ccc1C(C)C,-0.9,0,-8,84,i,0.99,148
COc1cccc(OCCn2cccc2/C=C2/C(=N)N3OC(C)=CC3=NC2=O)c1,.,-2,.,.,i,1.1,91
O=C(Nc1cccn2ncnc12)c1cccc(C(F)(F)F)c1,.,-3,41,163,i,0.91,93
Cc1nn2c(c1-c1ccccc1)N=C(c1ccco1)CC2c1ccccc1 (configuration not stated),-0.8,11,.,.,?,.,95
COc1ccc(-c2cnc(N)n2C)cc1,.,-4,-127,38,i,0.97,100
CCOC(=O)c1cnc(SCC(=O)Nc2ccc(N3CCOCC3)c(Cl)c2)nc1N,-3.1,-9,17,73,i,1.1,103
COc1ccc(C)cc1-n1c(-c2ccncc2)n[nH]c1=S,-1.6,-5,-77,105,i,0.91,130
CC(C)(C)n1nnnc1C(c1ccncc1)N1CCCCCC1 (configuration not stated),-2.4,-1,-9,97,i,1.1,91
COc1ccc(CCn2c(=O)[nH]c3cc(C(=O)N4CCN(c5ccccc5)CC4)ccc3c2=O)cc1OC,.,7,.,.,i,0.86,91
Cn1cc([N+](=O)[O-])c(C(=O)NNC(=O)c2ccc([N+](=O)[O-])cc2)n1,.,5,27,117,i,0.96,111
Cc1ccc(NC(=O)C2C(c3ccccc3)C=CC(c3ccccc3)C2C(=O)O)cc1 (configuration not stated),-1.3,-1,-6,86,i,1.1,103
Cn1nnnc1SCc1nc2ccccc2s1,-0.5,-9,30,92,i,1.1,100
Cc1nnc(-c2cnn(-c3ccccc3)c2N)n1Cc1ccc(F)cc1,-2.0,-11,-29,80,i,0.91,88
CCOc1ccc(S(=O)(=O)Nc2ccccc2SC)cc1,-2.7,-8,56,88,i,0.98,103
O=C(CC1S/C(=N/N=C/c2ccco2)NC1=O)Nc1cccc(Cl)c1Cl (configuration not stated),.,-5,.,.,i,1,103
OCCN1CCN(CC(O)COc2ccc(C34CC5CC(CC(C5)C3)C4)cc2)CC1 (configuration not stated),.,0,-36,48,i,0.57,111
CCCC(NC(=S)NCC1CCCO1)C12CC3CC(CC(C3)C1)C2 (configuration not stated),.,-2,-25,137,i,1,100
CC1(C)CC(NC(=O)c2cccc3ccccc23)CC(C)(C)N1,-0.4,0,19,106,i,1.1,99
O=C(/C(=C/O)N=Nc1ccc(Cl)cc1)c1ccncc1,-2.2,7,-7,142,i,0.89,102
Cc1ccc(C(=O)NC2CCS(=O)(=O)C2)cc1S(=O)(=O)N1CCCCC1 (configuration not stated),3.8,-15,-44,45,i,0.96,104
CCOC(=O)C1=C(N)n2c(s/c(=C/c3ccccc3)c2=O)=C(C(=O)OCC)C1c1ccccc1 (configuration not stated),-0.5,-19,3,63,.,.,105
Cc1cc(C)n(C(=O)Cn2nc([N+](=O)[O-])cc2C)n1,.,-7,42,85,i,1,109
O=C(CSc1nc2ccccc2[nH]1)NCc1ccco1,-1.7,-7,.,.,i,1.2,103
CCC(=NC1CC(C)(C)NC(C)(C)C1)C1=C(O)CC(C)(C)CC1=O,-0.3,-2,-61,202,i,0.98,111
